Compound activity from PubChem.
TRPV1 potentiator = human TRPV1 potentiation | Q8NER1 | TRPV1-expressing cells, Fluo-8 calcium influx, capsaicin EC20 potentiation; host cell line not named in the record; control for the full effect not named in the record | potentiation, % at 8.33 µM | actives 0.02% (n = 320,000); active means potentiation above 80%; inconclusive means 30% to 80%; inactive means below 30%; further: 0% is about no effect
Target sequence (Q8NER1 whole entry, looked up): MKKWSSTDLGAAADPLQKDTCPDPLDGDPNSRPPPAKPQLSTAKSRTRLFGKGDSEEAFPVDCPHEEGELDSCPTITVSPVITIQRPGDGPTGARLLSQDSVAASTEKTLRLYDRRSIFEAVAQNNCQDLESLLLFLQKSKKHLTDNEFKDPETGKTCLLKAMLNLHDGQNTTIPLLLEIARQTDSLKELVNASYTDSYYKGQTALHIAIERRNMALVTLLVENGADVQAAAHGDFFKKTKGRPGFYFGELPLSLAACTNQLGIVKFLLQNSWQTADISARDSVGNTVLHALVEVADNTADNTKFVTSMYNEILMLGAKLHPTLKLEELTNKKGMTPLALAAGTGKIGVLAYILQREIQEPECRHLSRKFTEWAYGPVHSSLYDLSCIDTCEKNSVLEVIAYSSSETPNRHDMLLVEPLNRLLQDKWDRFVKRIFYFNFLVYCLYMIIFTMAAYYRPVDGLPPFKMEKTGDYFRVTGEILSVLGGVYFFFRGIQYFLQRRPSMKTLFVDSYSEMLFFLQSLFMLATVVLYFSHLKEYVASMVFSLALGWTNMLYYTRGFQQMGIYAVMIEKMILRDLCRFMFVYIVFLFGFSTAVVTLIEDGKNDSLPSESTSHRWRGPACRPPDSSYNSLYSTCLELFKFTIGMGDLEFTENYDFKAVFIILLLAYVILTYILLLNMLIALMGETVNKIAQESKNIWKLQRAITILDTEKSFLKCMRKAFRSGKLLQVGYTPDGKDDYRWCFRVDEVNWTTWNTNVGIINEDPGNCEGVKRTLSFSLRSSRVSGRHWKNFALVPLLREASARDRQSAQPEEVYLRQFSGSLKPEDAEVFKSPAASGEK
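Cells expressing TRPV1 were dye-loaded with Fluo-8 and read kinetically: 10 s baseline, 3 min after compound (agonist portion), then 2 min after EC20 capsaicin (allosteric enhancer portion). Calcium-bound dye fluorescence at 480/520 nm.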
ClpP mod = qHTS Assay for Activators of ClpP; Potency, µM (doses to about 57.5 µM), inactives show at the highest dose activity change, negative = active; purified B. subtilis ClpP, FRET peptide cleavage, 20 min; actives 1.9% (n = 340,000); ATP-dependent Clp protease proteolytic subunit (Bacillus subtilis (strain 168)), P80244; active = well fitted falling curve with a large enough effect; inconclusive = small, poorly fitted or top-dose-only effect; inactive = no such curve, though single readings can be large or run the other way; further: potency means the concentration at half of the fitted maximal effect; the source files actives as falling curves though it sought activators and does not explain the sign; nearly all actives have a fitted effect of over 65% in size; many hits overshoot -100%
Target sequence (P80244 whole entry, looked up): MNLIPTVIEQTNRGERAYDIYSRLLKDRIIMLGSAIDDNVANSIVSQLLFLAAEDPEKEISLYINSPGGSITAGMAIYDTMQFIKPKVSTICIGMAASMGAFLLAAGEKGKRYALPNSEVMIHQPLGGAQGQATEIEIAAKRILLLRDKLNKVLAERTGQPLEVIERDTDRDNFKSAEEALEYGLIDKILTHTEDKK
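Buffer: 100 mM Tris/HCl pH8, 100 mM KCl, 0.05% low protease BSA, 2.5% glycerol, 0.01% Tween-20. ClpP 10 microg/mL final; 20 min RT; delta FRET normalized to ADEP and DMSO controls.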
Sfp inh = blocks B. subtilis Sfp PPTase activity. actives 3.5% (n = 310,000). Q9F4F7. AID 1490. Potency, µM, for inactives: max response, negative = inhibition, actives largely listed as inhibitors. Biochemical Sfp PPTase activity, qHTS; active means well fitted inhibition curve with a large enough effect; inconclusive means small, poorly fitted or top-dose-only effect, or another doubt; inactive means no such curve, though single readings can be large or run the other way;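 further: the enzyme is Sfp with the accession as filed and its product quenches rhodamine fluorescence; potency means the concentration at half of the fitted maximal effect; 0% = enzyme reaction without inhibitor and -100% = no enzyme wells; top concentration of the series not given in the record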
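Reaction rates are the 30-min fluorescence difference (ex 525, em 598 nm) in wells containing 15 nM Sfp, 5 uM rhodamine-CoA and 12.5 uM BHQ-2-YbbR at pH 7.6 with 10 mM MgCl2.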
gsp agonist = gsp mutant agonism; gsp mutant cells, cAMP HTRF, 30 min; control for the full effect not named in the record; Potency, µM (titrated, usually from 76.9 µM), inactives show at the highest dose activation (cAMP increase), usual class: activators; actives 0.13% (n = 340,000); AID 624287; active = well fitted activation curve with a large enough effect; inconclusive = small, poorly fitted or top-dose-only effect, or another doubt; inactive = no such curve, though single readings can be large or run the other way; cell line not stated here;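 further: phosphodiesterase inhibitor Ro 20-1724 added with compounds to block cAMP breakdown; potency means the concentration at half of the fitted maximal effect; nearly all actives have a fitted effect of over 60% in size; about a fifth of the inactives were tested at one dose only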
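Cells in DMEM/10% FBS with G418 were pretreated with compounds in DMSO plus […] (300 uM stock) for 30 min at 37C. cAMP was measured by HTRF (cAMP-d2 plus anti-cAMP antibody-K) after 30 min at room temperature.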
Menin-MLL FL inh = menin-MLL binding inhibition, fluorescein peptide; 290,000 tested, under 10 active; FP activity change, % at 61.4 µM; Fluorescence polarization, fluorescein-MLL peptide displacement from menin; inconclusive = falling polarisation curve, or a change in total fluorescence; inactive = total fluorescence flat and polarisation flat or rising; no compound was filed as active; the % refers to the polarisation; negative = inhibition;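 further: % of control where 0% means no effect; inhibitors lower the polarisation; unlabelled MLL peptide was the positive control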
gsp antag = antagonists of gsp mutant (McCune-Albright syndrome); gsp-mutant cells, cAMP HTRF, 30 min; control for the full effect not named in the record; Potency, µM (series often up to 76.9 µM), without a hit: at the top dose activity change, negative = inhibition, actives largely listed as inhibitors; actives 0.4% (n = 340,000); active = falling curve of any shape with a large fitted effect; inconclusive = falling curve, mostly with a smaller effect; inactive = flat or rising curve; cell line not stated here;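 further: intracellular cAMP measured with PDE inhibitor Ro 20-1724 present during compound exposure; potency means the concentration at half of the fitted maximal effect; on the % scale 0 is the no-effect control and ±100 the full control effect; nearly all actives have a fitted effect of over 65% in size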
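Cells in G418 medium, seeded 16-24 h, 37C; buffer exchange to DPBS + 1 mM CaCl2, 0.5 mM MgCl2, 0.05% BSA; cpds in DMSO + […] (300 uM stock), 30 min 37C; HTRF cAMP detection.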
TRPML1 blocker = inhibitors of human TRPML1 channel | Q9GZU1 | TRPML1-inducible cells, Ca2+ dye fluorescence, FDSS; hits give low values; inhibition of EC80 agonist-evoked calcium signal | activity change, negative = inhibition, % (no concentration beside the values) | actives 0.02% (n = 390,000); in the data active means activity change below about -50%; inconclusive means about -30% to -50%; inactive means above about -30%;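 further: stimulus is agonist 54-4 at its EC80 concentration; on the % scale 0 is the no-effect control and ±100 the full control effect; compound concentration not given in the record; the text of the record puts the active cut at -80%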
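Calcium fluorescence in TRPML1-DL cells induced overnight with Tet: a 110 s read after compound pin addition, then a 110 s antagonist read after challenge with 54-4 at 4 uM final (EC80).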
Numbers without * were called inactive; ? = inconclusive; · = no result given; & = joins results of further samples; [ ] = another dose, or the depositor's remark. Some of the compounds tested; count on the stated rates, not on these rows.

SMILES	TRPV1 potentiator	ClpP mod	Sfp inh	gsp agonist	Menin-MLL FL inh	gsp antag	TRPML1 blocker
O=C1c2cccc3cccc(c23)C(=O)N1/N=C/c1c(O)n(-c2ccccc2)c(=O)[nH]c1=O	6.1	·	-24.1%	6.6%[15.4 µM]	-1.1	3.5%	9.0
C[N+]1(C)C2CC[C@H]1CC(OC(=O)C(CO)c1ccccc1)C2 (stereo not given in full)	-3.8	0.6%	·	·	·	-2.8%	-2.7
O=c1[nH]c(=O)n(C2CCCCC2)c(O)c1/C=N/N1CCCCC1c1cccnc1 (stereo not given)	26.7	-2.2%	6.6%	24.1%	6.7	4.3%	·
C[C@]12CCC(=O)C=C1CC[C@@H]1C2CC[C@]2(C)C(=O)CCC12 (stereo not given in full)	-20.2	-1.0%	1.9%	1.0%	2.4	-4.9%	-10.7
NN=C(N)N	-6.5	0.8%	16.9%&-12.6%	·	?	3.2%	-11.9
CCOC(=O)C(O)(c1ccc(NC(=O)c2ccc(Cl)c(Cl)c2)cc1)C(F)(F)F (stereo not given)	-7.4	-1.0%	25.1%	?	4.9	-9.2%	-9.6
CCC12CN3CCN(CC(C3)/C1=N/NC(=O)c1ccncc1)C2	-0.3	·	9.2%	-2.3%[15.4 µM]	-1.4	9.7%	2.4
CN1C(=O)N(C)C(=O)C2(Cc3ccccc3N3CCOCC32)C1=O (stereo not given)	-2.1	-0.4%	19.6%	2.3%	-8.7	9.6%	-17.1
CC(O)C1C=CC=CC(=O)OC2CC3OC4C5OC5(C)C(O)CC4(COC(=O)C(O)C(C)CCO1)C2(C)C31CO1 (stereo not given)	·	31.6µM*	·	-19.7%	·	3.9%	13.6
c1cncc(C2Nc3cccc4cccc(c34)N2)c1	17.8&-2.3	0.5%	?	3.9%	?	-8.2%	-5.2
CCOC(=O)C1(CCc2ccccc2)CCN(CC(O)CO)CC1 (stereo not given)	-1.8	-0.4%	15.1%	-5.7%	0.0	10.0%	-3.7
Cc1c2cnn(CC(=O)N3CCC4(CC3)OCCO4)c(=O)c2c(C)n1Cc1ccccc1F	1.0	-21.9%	-16.8%	?	0.9	-7.3%	-3.5
CC(=O)OC(C)(C)/C=C/C(=O)C(C)(O)C1C(O)CC2(C)C3CC=C4C(CC(O)C(=O)C4(C)C)C3(C)C(=O)CC12C (stereo not given)	·	1.3%	·	1.9%	·	17.8%	-11.5
O=C(CCn1c(=O)oc2ccccc21)N1CCN(C(c2ccccc2)c2ccccc2)CC1	2.0	1.1%	6.1%	7.6%[15.4 µM]	-2.0	?	0.4
CCc1nc2ccccc2c(=O)n1-c1ccccc1[N+](=O)[O-]	-3.9	-7.4%	15.2%	-0.3%	3.4	13.3%	-12.4
O=[N+]([O-])[N-][n+]1cnn(Cc2ccc(Cl)cc2)c1	5.8	-3.1%	21.8%	-39.8%[inhibitor]	0.4	12.5%	-27.8
Cn1c(=O)cc(OCC(=O)N2CCN(Cc3ccc4c(c3)OCO4)CC2)c2ccccc21	2.2	-2.4%	23.6%	-4.4%	2.5	-9.5%	11.3
C(#CCN1CCOCC1)COC/C=C/c1ccccc1	-0.7	-2.0%	-0.8%	6.1%	1.7	5.8%	6.0
CC(=O)OC1CC(OC2C(O)CC(OC3C(O)CC(OC4CCC5(C)C(CCC6C5CCC5(C)C(C7=CC(=O)OC7)C(O)CC65O)C4)OC3C)OC2C)OC(C)C1OC1OC(CO)C(O)C(O)C1O (stereo not given)	·	1.0%	·	1.4%	·	0.0%	2.7
CC1(C)CC(n2[nH]c(=O)c3c2NC(=O)CSC3c2ccc(F)cc2)CCO1 (stereo not given)	28.5	-1.1%	17.9%	15.1%	0.8	-0.9%	-23.4
COc1cc(CN2CCCC(C(=O)c3sccc3C)C2)cc(OC)c1O (stereo not given)	-4.3	0.0%	18.8%	9.7%	2.9	2.3%	-3.6
CCOP(=O)(OCC)C(NC(C)=O)C(Cl)(Cl)Cl (stereo not given)	-3.6	-0.5%	9.0%	16.2%	0.4	2.9%	2.7
COC(=O)C1=C(c2ccc(-c3ccccc3)c(F)c2)C[C@@H]2CC[C@H]1N2C(=O)N1CCc2cc(OC)c(OC)cc2C1	-5.8	-13.5%	·	·	·	-8.1%	-11.9
CCC1(CC(C)C)C(=O)NC(=S)NC1=O	·	0.9%	·	9.7%	·	8.5%	4.4
Cc1cccc(CN2CCCC(C(=O)c3ccc4c(c3)OCO4)C2)n1 (stereo not given)	-1.7	·	4.0%	?	-1.9	5.1%	-15.1
O=C1NC(=O)N(Cc2ccco2)C(=O)/C1=C\c1cccn1CCOc1ccccc1	-1.8	·	20µM*	24.4%	?	1.1%	45.1
CC(=O)N1Cc2cnnn2-c2ccccc2C1(C#N)Cc1ccccc1 (stereo not given)	·	0.3%	·	·	·	5.4%	6.2
CCN(CC)S(=O)(=O)c1ccc(C)c(NCC(=O)Nc2ccc(C#N)c(Cl)c2)c1	8.7	-1.3%	4.9%	-5.1%	6.2	?	-4.5
CC(=O)N1CN2CN(C(C)=O)CC(C(=O)c3ccccc3)(C2)C1	-0.4	-0.1%	-0.9%	16.4%	-0.3	22.5%	-15.9
O=C1NC(=O)N(CCc2ccc(F)cc2)C(=O)/C1=C/c1cccs1	-1.7	-15.5%	25.1µM*	-1.5%[15.4 µM]	13.4	4.7%	-10.3
Cc1ccc2c(c1)CC1(CN2C)C(=O)NC(=O)N(CCc2ccccc2)C1=O (stereo not given)	12.6	-7.1%	-26.7%	-3.1%	0.4	-11.5%	19.7
COCCOC(=O)c1c(C)oc2ccc(OC(=O)N(C)C)cc12	6.9	0.7%	3.7%	15.9%	-0.7	5.2%	-8.2
COC(=O)C1=C(c2cccc(C#N)c2)C[C@@H]2CC[C@H]1N2C(=O)NCc1ccco1	22.7	1.0%	·	·	·	9.0%	-5.5
COC(=O)C1=C(C(=O)OC)C2c3ccccc3C1c1ccccc12	·	-6.3%	·	-18.5%	·	-7.6%	19.5
O=P(NCc1ccccc1)(Oc1ccccc1)Oc1ccccc1	-9.8	-3.4%	-8.8%	-49.0%[inhibitor]	-1.9	-4.9%	65.6
FC(F)(F)c1ccccc1CNCCc1c[nH]c2ccccc12	6.6	0.5%	-8.6%	-5.7%	-7.7	1.7%	25.0
Cc1ccsc1C(=O)C1CCCN(Cc2cnc(N3CCCC3)s2)C1 (stereo not given)	-4.6	·	15.7%	-0.5%[15.4 µM]	-10.1	10.9%	-2.2
CC(C)C[C@H]1C(=O)N2CCC[C@H]2[C@]2(O)O[C@](NC(=O)[C@@H]3C=C4c5cccc6[nH]c(Br)c(c56)CC4N(C)C3)(C(C)C)C(=O)N12 (stereo not given in full)	8.0	-14.6%	-19.0%	·	-14.2	?	13.3
Cc1sc2c(c1C)C(c1cccs1)=NCC(=O)N2CC(=O)NCc1cccs1	?	2.8%	-1.0%	6.4%	1.1	-25.8%	0.2
O=[N+]([O-])c1cnc[nH]1	-9.6	0.3%	·	·	·	3.0%	-8.8
O=C(Oc1ccc([N+](=O)[O-])cc1)N1CCC(N2CCCCC2)CC1	0.7	0.7%	7.2%&21.2%	·	-1.3&0.5	3.8%	3.9
O=c1[nH]c(=O)n(-c2ccccc2Cl)c(O)c1C=NCCN1CCCCC1	8.7	-0.2%	-2.7%	4.4%	0.4	9.1%	-19.2
CO[C@H]1[C@@H](OC)CC(OC2OC(CO)C(O)C(O)C2O)/C(=C\C#N)[C@@H]1O (stereo not given in full)	?	-1.4%	2.4%	·	0.4	-2.6%	9.6
CNC(=O)O/N=C(\C)Cc1nnn(-c2cc(C)on2)n1	4.6	·	5.8%	25.5%[15.4 µM]	-6.4	2.8%	-2.4
COc1cccc(CN2CC=C(c3ccc(F)cc3)CC2)c1	1.1	1.0%	7.8%	0.0%[15.4 µM]	-1.4	8.0%	13.9
CC1=CC2OC3CC4OC(=O)C=CC=CC(=O)OCCC(C)C(O)C(=O)OCC2(CC1O)C4(C)C31CO1 (stereo not given)	·	0.5%	·	5.6%	·	-1.6%	-8.2
O=C(c1cc2cc3ccc(Cl)cc3nc2o1)N1CCC2(CC1)OCCO2	-22.0	-6.8%	4.8%	-56.6%[inhibitor]	3.9	1.3%	53.2
C1=CC(Cc2cncs2)c2ccccc21 (stereo not given)	11.3	-5.6%	·	-29.3%	·	-0.1%	8.8
Nc1ccccc1Nc1ccc([N+](=O)[O-])cc1[N+](=O)[O-]	0.1	-6.9%	5.3%	-60.5%[inhibitor]	1.7	4.5%	-18.7
CCCCCCC(=O)c1c(O)n(-c2ccccc2OC)c(=O)[nH]c1=O	-4.7	-1.3%	9.6%	-1.0%	10.0	-10.8%	-6.2

The list goes on (two carried over from the part before).
SMILES	TRPV1 potentiator	ClpP mod	Sfp inh	gsp agonist	Menin-MLL FL inh	gsp antag	TRPML1 blocker
Nc1ccccc1Nc1ccc([N+](=O)[O-])cc1[N+](=O)[O-]	0.1	-6.9%	5.3%	-60.5%[inhibitor]	1.7	4.5%	-18.7
CCCCCCC(=O)c1c(O)n(-c2ccccc2OC)c(=O)[nH]c1=O	-4.7	-1.3%	9.6%	-1.0%	10.0	-10.8%	-6.2
CN1OC[C@@H]2CN[C@H](c3ccccc3Br)C[C@@H]21	·	-0.7%	·	·	·	4.7%	-0.6
CC(Cc1ccsc1)NCc1cn[nH]c1-c1ccc(F)cc1F (stereo not given)	0.8	·	12.6%	8.7%[15.4 µM]	-1.1	5.8%	-6.4
N#CC1(c2ccccc2)CCN(C2CC(=O)N(c3ccc(F)cc3)C2=O)CC1 (stereo not given)	-4.0	-2.8%	-5.5%	1.6%	2.0	-4.4%	-5.5
COc1cc(OC)c(OC)cc1/C=C1/C(=O)NC(=O)N(Cc2ccccc2)C1=O	12.9	·	-14.2%	-3.4%	?	10.1%	2.2
CN(C)C(=O)Oc1ccc2c(c1)O/C(=C\c1ccccc1)C2=O	-3.3	-10.7%	2.1%	-40.2%[inhibitor]	-8.9	-10.9%	·
CCOC(=O)c1ccc(NC(=O)N2CC3CC(C2)c2cccc(=O)n2C3)cc1 (stereo not given)	-6.3	0.5%	9.0%	-3.3%	·	6.5%	-4.4
